# ClpP mod: qHTS Assay for Activators of ClpP; ATP-dependent Clp protease proteolytic subunit (Bacillus subtilis (strain 168)), P80244; purified B. subtilis ClpP, FRET peptide cleavage, 20 min; Potency, µM (highest dose often 57.5 µM), without a hit: at the top dose activity change, negative = active; actives 1.9% (n = 340,000); AID 651965, 2013; active = well fitted falling curve with a large enough effect; inconclusive = small, poorly fitted or top-dose-only effect; inactive = no such curve, though single readings can be large or run the other way; also: potency is read from the fitted curve at half-maximal effect; the source files actives as falling curves though it sought activators and does not explain the sign; nearly all actives have a fitted effect of over 65% in size; many hits overshoot -100%
# Target sequence (P80244 whole entry, looked up): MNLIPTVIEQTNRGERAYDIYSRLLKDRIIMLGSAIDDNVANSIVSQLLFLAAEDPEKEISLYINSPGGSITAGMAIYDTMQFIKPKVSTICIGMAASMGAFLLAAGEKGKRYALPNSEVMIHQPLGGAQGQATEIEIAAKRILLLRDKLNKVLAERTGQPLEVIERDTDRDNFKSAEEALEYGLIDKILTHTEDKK
#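 Buffer: 100 mM Tris/HCl pH8, 100 mM KCl, 0.05% low protease BSA, 2.5% glycerol, 0.01% Tween-20. ClpP 10 microg/mL final; 20 min RT; delta FRET normalized to ADEP and DMSO controls.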
# PINK1 modulator: A Quantitative High throughput Screen to Identify Chemical Modulators of PINK1 Expression | PINK1 immunofluorescence, high-content cytometry, 24 h | Potency, µM (highest dose often 76.6 µM), inactives show at the highest dose activation (PINK1 increase), hits mostly activators | actives 0.2% (n = 410,000) | AID 624263, 2012; active = well fitted activation curve with a large enough effect; inconclusive = small, poorly fitted or top-dose-only effect; inactive = flat fitted curve, though single readings scatter; cell line not stated here;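 also: potency is read from the fitted curve at half-maximal effect; % of control where 0% means no effect; nearly all actives have a fitted effect of over 65% in size; a mitochondrial uncoupler was the plate control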
#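 Compound titrations (5 concentrations, 24 h) on a stable cell line; DMSO and CCCP controls. Endpoint: fixed-cell PINK1 immunofluorescence with mitochondrial, cell and nuclear markers, scanned by microplate cytometer.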
# gsp ag: qHTS for Agonist of gsp, the Etiologic Mutation Responsible for Fibrous Dysplasia/McCune-Albright Syndrome: qHTS; gsp mutant cells, cAMP HTRF, 30 min; control for the full effect not named in the record; Potency, µM (series often up to 76.9 µM), for the others: at the top dose activation (cAMP increase), actives largely listed as activators; actives 0.13% (n = 340,000); AID 624287, 2012; active = well fitted activation curve with a large enough effect; inconclusive = small, poorly fitted or top-dose-only effect, or another doubt; inactive = no such curve, though single readings can be large or run the other way; cell line not stated here;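 also: phosphodiesterase inhibitor Ro 20-1724 added with compounds to block cAMP breakdown; potency is read from the fitted curve at half-maximal effect; nearly all actives have a fitted effect of over 60% in size; about a fifth of the inactives were tested at one dose only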
#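 Cells stably selected in G418 were plated at 2000/well, grown 16-24 hr, then given compounds in DMSO with the PDE inhibitor […] (300 uM solution added) for 30 min at 37C; cAMP was read by HTRF.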
# Menin-MLL FL inh: qHTS Assay for Inhibitors Targeting the Menin-MLL Interaction in MLL Related Leukemias: Competition With Fluorescein Labeled MLL-derived Peptide. Fluorescence polarization, fluorescein-MLL peptide displacement from menin. FP activity change, % at 61.4 µM. 290,000 tested, under 10 active; inconclusive = falling polarisation curve, or a change in total fluorescence; inactive = total fluorescence flat and polarisation flat or rising; no compound was filed as active; the % refers to the polarisation; negative = inhibition;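 also: % of control where 0% means no effect; inhibitors lower the polarisation; unlabelled MLL peptide was the positive control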
# D2 agonist: Beta-Arrestin HTS for Positive Allosteric Modulators of the Human D2 Dopamine Receptor: Agonists | D(2) dopamine receptor (Homo sapiens), P14416 | DiscoveRx PathHunter D2 beta-arrestin, luminescence, 90 min; 100% = 57 uM dopamine signal | activation, % (concentration not given with the values) | actives 0.084% (n = 360,000) | AID 624465, 2012; in the data active = activation above about 40%; inconclusive = about 15% to 40%; inactive = below about 15%; also: compound concentration not given in the record; the text of the record calls up to 30% inactive
# Target sequence (P14416 whole entry, looked up): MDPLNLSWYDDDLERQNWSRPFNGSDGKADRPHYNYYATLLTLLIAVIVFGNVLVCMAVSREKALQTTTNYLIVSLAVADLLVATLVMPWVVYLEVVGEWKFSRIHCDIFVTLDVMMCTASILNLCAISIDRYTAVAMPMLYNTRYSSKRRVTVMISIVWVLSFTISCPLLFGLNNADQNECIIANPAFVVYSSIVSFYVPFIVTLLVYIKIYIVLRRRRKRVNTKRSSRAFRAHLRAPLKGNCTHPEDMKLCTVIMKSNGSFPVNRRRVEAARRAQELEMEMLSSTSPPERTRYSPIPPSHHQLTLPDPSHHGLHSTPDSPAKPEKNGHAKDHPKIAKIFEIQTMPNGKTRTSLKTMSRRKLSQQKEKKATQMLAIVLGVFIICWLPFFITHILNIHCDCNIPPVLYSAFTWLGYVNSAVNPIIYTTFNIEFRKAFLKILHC
#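 Agonist mode: compounds alone added to overnight-plated D2 PathHunter cells for 90 min at 37 C, with 57 uM final dopamine (EC100) defining full response. Beta-arrestin recruitment detected by chemiluminescent reagent, read after 1 h at ambient temperature.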
# Sfp inh: qHTS Assay for Inhibitors of Bacillus subtilis Sfp phosphopantetheinyl transferase (PPTase) | 4'-phosphopantetheinyl transferase ffp (Bacillus subtilis), Q9F4F7 | Biochemical Sfp PPTase activity, qHTS | Potency, µM, for inactives: max response, negative = inhibition, actives largely listed as inhibitors | actives 3.5% (n = 310,000) | AID 1490, 2009; active = well fitted inhibition curve with a large enough effect; inconclusive = small, poorly fitted or top-dose-only effect, or another doubt; inactive = no such curve, though single readings can be large or run the other way;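 also: the enzyme is Sfp with the accession as filed and its product quenches rhodamine fluorescence; potency is read from the fitted curve at half-maximal effect; 0% = enzyme reaction without inhibitor and -100% = no enzyme wells; top concentration of the series not given in the record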
#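 Sfp 15 nM + cpd, 15 min RT; start w/ rhodamine-CoA 5 uM, BHQ-2-YbbR 12.5 uM (final); 50 mM Hepes pH 7.6, 10 mM MgCl2, 0.01% NP-40, 0.01% BSA; read 525/598 nm at 0 and 30 min.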
# gsp antag: qHTS for Antagonists of gsp, the Etiologic Mutation Responsible for Fibrous Dysplasia/McCune-Albright Syndrome: qHTS. actives 0.4% (n = 340,000). gsp-mutant cells, cAMP HTRF, 30 min; control for the full effect not named in the record. Potency, µM (series often up to 76.9 µM), inactives show at the highest dose activity change, negative = inhibition, most hits filed as inhibitors; active = falling curve of any shape with a large fitted effect; inconclusive = falling curve, mostly with a smaller effect; inactive = flat or rising curve; cell line not stated here;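 also: intracellular cAMP measured with PDE inhibitor Ro 20-1724 present during compound exposure; potency is read from the fitted curve at half-maximal effect; % is scaled to controls: 0 for no effect and ±100 for the full control effect; nearly all actives have a fitted effect of over 65% in size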
#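 Measurement of cellular cAMP by homogeneous time-resolved fluorescence following a 30 min compound exposure at 37C. The PDE inhibitor […] was present throughout; the assay buffer was DPBS with 0.05% BSA and 0.005% Tween 20.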
# * = called active by the depositor; u = inconclusive; x = no result given; & = joins results of further samples; [ ] = dose if it differs, or a comment.
SMILES,ClpP mod,PINK1 modulator,gsp ag,Menin-MLL FL inh,D2 agonist,Sfp inh,gsp antag
O=C(c1cc(=O)[nH]c2ccccc12)N1CCN(c2ccccc2)CC1,-6.6%,0.9%,-8.4%,2.8,-6.6,3.8%,14.0%
Cc1nc(N2CCN(C)CC2)[nH]c(=O)c1Cc1cccc2ccccc12,-0.1%,-1.2%,-16.9%,-0.8,-0.7,10.7%,4.8%
O=C(Cc1ccccc1)NN=Cc1ccccc1,1.5%,-0.1%,-25.6%,x,-5.0,x,8.4%
COc1ccc(CCNC(=O)c2cc(S(=O)(=O)N(C)C)ccc2N2CCCC2)cc1,-3.1%,3.4%,4.1%[15.4 µM],0.3,-2.0,5.0%,3.5%
CCC(=O)c1ccc(N2CCN(C(=O)c3cccc(F)c3)CC2)c(F)c1,x,1.1%,-8.1%[15.4 µM],0.6,3.3,0.4%,-28.0%
O=c1c2[nH]c3cccc(Cl)c3c2ncn1Cc1ccncc1,-2.8%,6.1%,17.2%,-0.1,2.4,-4.3%,10.7%
CCN(CC)C(=O)CSc1nsc(SCC(=O)N(CC)CC)c1C#N,-0.9%,2.8%,6.0%,1.6,-1.0,17.3%,4.1%
CCOCCCn1c(=S)[nH]c2cc(C(=O)N3CCOCC3)ccc2c1=O,-2.6%,-0.3%[38.3 µM],12.7%,0.7,-2.1,79.4µM*,1.7%
COCC(C)n1c(C)cc(C(=O)COC(=O)CN=C2NS(=O)(=O)c3ccccc32)c1C (stereo unspecified),2.1%,-3.0%,-8.7%,-1.8,3.6,16.5%,-7.4%
O=C(NCc1cccs1)C1CC(=O)N(C2CCCC2)C1 (stereo unspecified),0.6%,u,-5.0%,0.8,-2.8,15.7%,9.2%
CCOc1ccc(NC(=O)CN(C)C(=O)c2ccc(C)o2)cc1OCC,-6.8%,-1.1%,-1.8%[15.4 µM],2.7,1.2,-1.1%,13.7%
COc1cc(Br)c(CC(=O)NNC(=O)c2ccc(F)cc2)cc1OC,-0.1%,6.0%,5.3%[15.4 µM],x,-2.0,x,10.9%
O=C(Cc1cc(=O)[nH]c(=O)[nH]1)NCc1ccccc1,-3.5%,2.5%,19.8%,3.8,-2.3,6.8%,0.1%
O=C(COC(=O)c1cc(Cl)ccc1O)NNC(=O)c1ccccc1F,107.7%,-0.8%,-4.2%,x,-7.6,x,-13.0%
Cc1ccc(OCC(=O)NCC(=O)Nc2ccc(F)c(F)c2F)c([N+](=O)[O-])n1,-0.4%,0.4%,10.4%,-0.4,-0.4,6.6%,-3.7%
Cc1[nH]c(=O)[nH]c(=O)c1S(=O)(=O)Nc1ccc(F)c([N+](=O)[O-])c1,1.7%,-1.8%,u,0.0,2.4,9.8%,25.5%
O=C1Nc2ccc(F)cc2C12OCCO2,x,0.7%,u,-4.7,-2.8,-0.6%,4.2%
Cc1ccc(CSc2nnc3nc(C)cc(C)n23)cc1,1.1%,-3.0%,-0.1%,5.7,-0.5,-5.9%,-5.1%
COc1ccc(C(C)NC(=O)C23CC4CC(CC(C4)C2)C3)cc1 (stereo unspecified),-1.4%,4.6%,2.7%[15.4 µM],-0.5,-4.9,6.0%,-11.7%
COc1cc2cnc(-c3ccccc3)c(-c3ccc([N+](=O)[O-])cc3)c2cc1OC,-3.6%,1.4%,10.0%,x,0.7,x,-13.9%
COc1ccc(-c2oc3ccc(-c4ccc(OC)nc4)cc3c2C#CC2(O)CCCCC2)cc1,4.1%,4.6%,6.2%,0.1,-3.1,-18.0%,0.4%
CCn1c(SCc2ccc(OC)cc2)nnc1-c1ccncc1,-1.3%,-2.6%[38.3 µM],-8.0%,-6.5,0.5,6.3%,6.7%
COC(=O)C1=CO[C@@H](O[C@@H]2O[C@H](CO)[C@@H](O)[C@H](O)[C@H]2O)C2C1CC(O)O[C@H]2C (stereo partly specified),0.9%,-0.3%,x,x,-2.1,x,3.0%
COC(C[C@@H]1O[C@H]1[C@H](O)COCc1ccccc1)OC,-1.2%,-1.2%,3.6%,2.8,-1.2,9.8%,-6.1%
O=C(Nc1nc(-c2cccs2)c(C(=O)C(F)(F)F)s1)c1ccco1,0.0%,-0.2%,u,0.3,0.9,20.5%,-2.1%
Cc1sc2ncn(CC(=O)NCc3ccccn3)c(=O)c2c1S(=O)(=O)N1CCOCC1,-1.4%,u,-3.9%,6.0,0.5,12.0%,6.8%
COc1cc(/C=C/c2ccc3c([N+](=O)[O-])cccc3n2)ccc1OCC(=O)O,0.4%,-0.4%,3.6%,1.1,-3.7,17.0%,-13.2%
O=C(NCc1ccccc1CN1CCCC1)c1ccc(S(=O)(=O)Nc2ccccc2)cc1,-2.7%,2.0%,6.5%,x,-1.8,x,x
O=C(NCCCN1CCOCC1)c1ccc2c(c1)N(Cc1cccc(F)c1)C(=O)c1ccccc1S2,1.0%,-1.5%,16.9%,x,1.6,u,-3.5%
CCOc1ccccc1NC1=C(Cl)C(=O)N(c2ccccc2)C1=O,-1.9%,1.9%,-33.9%[inhibitor],-1.3,-1.4,-12.3%,-10.1%
CC(C)OC(=O)/C(C#N)=C/c1cn(Cc2ccccc2)c2ccccc12,-1.9%,2.8%,11.9%,-0.6,-2.4,2.4%,-5.4%
Cc1cc(Cl)ccc1OCC(=O)NCCOc1nc(N2CCOCC2)nc(N2CCOCC2)n1,-0.3%,2.0%,27.6%,6.2,-5.2,10.6%,7.0%
O=C(Oc1ccccc1C(=S)N1CCOCC1)c1cccc([N+](=O)[O-])c1,-1.9%,3.1%,12.2%[15.4 µM],-1.3,-4.5,6.2%,7.2%
COC(=O)C1=NN(C(=O)c2cccc(Br)c2)C(O)(c2ccc(Cl)cc2)C1 (stereo unspecified),0.7%,5.7%,2.0%,u,-7.4,20.3%,-17.3%
NS(=O)(=O)c1ccc2nc(NC(=O)C3CCCO3)sc2c1 (stereo unspecified),0.9%,-1.0%,-33.2%[inhibitor],1.9,-2.8,-3.8%,9.1%
COc1ccc(C(=O)NCC(c2ccc3c(c2)OCO3)N2CCN(c3ccc(OC)cc3)CC2)cc1 (stereo unspecified),-0.5%,0.5%,-0.7%[15.4 µM],x,-2.8,x,-12.1%
COc1ccccc1-c1nnc(SCC(=O)NCc2ccco2)n1N,x,0.5%,7.7%[15.4 µM],0.3,-2.5,2.2%,1.8%
COc1ccc(CNC(=O)CCC(=O)Nc2nnc(CC(C)C)s2)cc1,x,3.5%,8.8%[15.4 µM],-0.5,-1.4,22.9%,0.9%
O=C(NCc1ccc(F)cc1)Nc1nnc([C@H]2C[C@H](O)[C@@H](CO)O2)s1,-3.0%,0.3%,x,x,7.2,x,x
O=C(c1ccc(CS(=O)(=O)Cc2ccccc2)cc1)N1CCCCC1,0.9%,2.8%,9.9%,-0.8,7.9,3.0%,3.2%
CN1CCN(c2nc(-c3cccc(C#N)c3)nc3ccccc23)CC1,x,-0.5%,x,2.3,x,-2.8%,x
COc1ccc(S(=O)(=O)N2CCN(c3nc(C)cc(C)n3)CC2)cc1,-3.3%,4.0%,u,-3.6,-5.5,7.1%,-3.9%
COc1ccccc1CCC(=O)OCC(=O)Nc1cccc(S(=O)(=O)N2CCOCC2)c1,x,1.1%,-5.6%[15.4 µM],x,2.0,x,-0.8%
Cc1ccc(C)c(S(=O)(=O)N2CCCOC2CNC(=O)C(=O)NCc2ccccn2)c1 (stereo unspecified),-1.1%,-0.2%,-48.3%[inhibitor],x,-2.4,-4.9%,-2.0%
CC(c1nnc(SCC(=O)N(C)C2CCS(=O)(=O)C2)n1-c1ccccc1)N(C)C (stereo unspecified),0.2%,-0.6%,-5.9%,x,-0.7,x,-6.7%
C=CCc1c(C)nc2c(C(=O)O)cnn2c1C,31.6µM*,4.5%[38.3 µM],u,2.0,-3.3,12.3%,-10.3%
Cc1cc(N)n2nc(-c3ccccc3)c(-c3ccccc3)c2n1,-20.8%,0.3%,-18.8%,6.1,1.0,1.3%,-5.4%
CSc1cccc(NS(=O)(=O)c2cccs2)c1,0.1%,1.0%[38.3 µM],-37.5%[inhibitor],0.6,-0.5,10.1%,-11.3%
Cc1ccc(C)c(OCc2cc(C(=O)NC(C)c3cnn(C)c3)no2)c1 (stereo unspecified),-0.3%,2.1%,2.3%,x,-4.1,-1.1%,0.8%
CC(C)NS(=O)(=O)c1ccc(OCC(N)=O)c(Cl)c1,1.1%,0.1%,-1.4%,-0.1,-1.5,7.3%,3.9%
# Later entries
SMILES,ClpP mod,PINK1 modulator,gsp ag,Menin-MLL FL inh,D2 agonist,Sfp inh,gsp antag
Cc1cc(NCCNC2=CC(=O)CCC2)nc2ccccc12,-12.9%,-1.8%,-44.5%[inhibitor],9.5,-4.2,5.9%,-6.8%
Cc1ccc(OCc2nc(C#N)c(NCc3ccc4c(c3)OCO4)o2)cc1,2.3%,0.4%,-23.4%,1.2,-0.9,-4.7%,-7.5%
CCCn1c(N)c(N(CCOC)C(=O)CSc2cc(C)c3cccc(C)c3n2)c(=O)[nH]c1=O,0.7%,-0.4%,u,x,1.0,x,11.3%
CCC(=O)NC(C)c1nc2ccccc2n1C (stereo unspecified),1.0%,0.1%,16.8%,1.1,1.1,8.7%,17.3%
O=C(CC1CC2CCC1C2)OCC(=O)c1c[nH]c2ccccc12 (stereo unspecified),0.3%,3.7%,u,2.1,-0.8,29.8%,-15.2%
CC(C)CC(=O)NC(=S)Nc1ccccc1C(=O)Nc1ccccc1,3.0%,4.7%[38.3 µM],-7.5%,0.0,-4.8,0.3%,8.2%
COc1ccc(C(CC(=O)Nc2ncccc2C)N2Cc3ccccc3C2=O)cc1OC (stereo unspecified),-1.1%,3.1%&-4.8%,0.6%,u,0.1,13.7%,8.7%
O=C(CCCn1c(=O)c2ccccc2n(CC(=O)N2CCN(c3ccccc3)CC2)c1=O)NCc1ccco1,x,-0.5%,-13.0%[15.4 µM],-5.3,-3.8,18.9%,-5.4%
COc1ccccc1NC(=S)NCC1CCCO1 (stereo unspecified),x,2.0%,-26.7%,2.3,2.1,1.3%,3.4%

# Bioassay records (PubChem BioAssay)

# Rows are unselected. Share with any hit: about 5.1%.
